Compound activity (PubChem BioAssay)
Cruzain inh Det: blocks cruzain activity in presence of Triton detergent; Potency, µM, for the others: max response, negative = inhibition, actives largely listed as inhibitors; AID 1478; purified cruzain, Z-FR-AMC fluorescence, 0.01% Triton; 200,000 tested, 0.43% active; P25779;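 further: plate controls were neutral wells for no effect and buffer without enzyme for full effect; nearly all actives have a fitted effect of over 40% in size; top concentration of the series not given in the record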
Target sequence (P25779 123-467 limits assumed): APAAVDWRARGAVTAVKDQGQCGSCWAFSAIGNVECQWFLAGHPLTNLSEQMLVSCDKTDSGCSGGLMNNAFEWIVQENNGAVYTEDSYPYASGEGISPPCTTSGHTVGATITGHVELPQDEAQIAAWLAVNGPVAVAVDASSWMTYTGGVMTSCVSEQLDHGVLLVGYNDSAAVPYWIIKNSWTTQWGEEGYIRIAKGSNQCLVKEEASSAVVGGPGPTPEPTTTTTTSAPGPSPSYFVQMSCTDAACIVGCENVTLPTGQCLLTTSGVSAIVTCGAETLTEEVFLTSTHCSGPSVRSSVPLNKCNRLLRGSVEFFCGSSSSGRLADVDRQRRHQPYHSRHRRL
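Purified cruzain (1.5 nM final) was preincubated with compounds for 15 min at room temperature in 100 mM sodium acetate pH 5.5, 5 mM DTT, 0.01% Triton X-100. Reaction started with 2 uM Z-FR-AMC; AMC fluorescence change over 60 s gave activity.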
SARS PLP yeast: blocks SARS-CoV papain-like protease in a yeast assay; Potency, µM (titrated, usually from 32.9 µM), for inactives: at the highest dose activity, positive = growth rescue; S. cerevisiae expressing SARS-CoV PLpro, growth rescue; control for the full effect not named in the record; 330,000 tested, 0.19% active; active means well fitted rising curve with a large enough effect; inconclusive means small, poorly fitted or top-dose-only effect; inactive means no such curve, though single readings can be large or run the other way; further: 0% is about no effect; nearly all actives have a fitted effect of over 55% in size; growth read by luminescence after 48 h
NS1 inh: blocks influenza NS1 protein function. S. cerevisiae slowed by influenza A NS1, growth recovery by OD600. Potency, µM (highest dose often 46.1 µM), for inactives: at the highest dose activity, positive = more growth. 270,000 tested, 0.4% active. AID 2326; active means well fitted rising curve with a large enough effect; inconclusive means small, poorly fitted or top-dose-only effect; inactive means no such curve, though single readings can be large or run the other way; further: nearly all actives have a fitted effect of over 50% in size
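In this qHTS, NS1 from influenza A is expressed in budding yeast, where it slows growth. Cells are switched from glucose to 2% galactose medium (pH 6.0, -URA), treated with compound, and growth recovery is read at OD600.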
2A StopGo: lowers the luciferase signal of an FMDV 2A StopGo reporter; human cells with a luciferase reporter of 2A StopGo recoding; control for the full effect not named in the record; 410,000 tested, 1.2% active; Potency, µM (titrated, usually from 57.9 µM), for the others: top-dose signal change, negative = less light; active = well fitted falling curve with a large enough effect; inconclusive = small, poorly fitted or top-dose-only effect; inactive = no such curve, though single readings can be large or run the other way; tested in HEK293T cells; further: on the % scale 0 is the no-effect control and ±100 the full control effect; nearly all actives have a fitted effect of over 45% in size; luciferase light after 4 h
Lassa entry inh: inhibitors of Lassa virus binding or cell entry; Lassa virus pseudotype entry inhibition, cell reporter; control for the full effect not named in the record; Potency, µM (doses to about 37.9 µM), for the others: at the highest dose activity change, negative = inhibition, most hits filed as inhibitors; 300,000 tested, 1.2% active; AID 540256; active means well fitted inhibition curve with a large enough effect; inconclusive means small, poorly fitted or top-dose-only effect, or effect the other way; inactive means flat fitted curve, though single readings scatter; tested in HEK293 cells; further: on the % scale 0 is the no-effect control and ±100 the full control effect; nearly all actives have a fitted effect of over 50% in size; luciferase read-out
RE007 growth inh: less growth of the S. pombe RE007 Vpr strain | S. pombe RE007 Vpr strain, BacTiter-Glo ATP luminescence, 24 h; control for the full effect not named in the record | AID 651644 | Potency, µM (highest dose often 92.2 µM), inactives show top-dose activity change, negative = less growth | 360,000 tested, 0.21% active; active = well fitted falling curve with a large enough effect; inconclusive = small, poorly fitted or top-dose-only effect; inactive = no such curve, though single readings can be large or run the other way;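 further: on the % scale 0 is the no-effect control and ±100 the full control effect; nearly all actives have a fitted effect of over 50% in size; the assay follows cell death caused by Vpr and the record does not say whether a fall means rescue or toxicity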
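Fission yeast RE007 carrying one integrated HIV-1 vpr copy, seeded at OD 0.01 in PMG+AL medium with 23 nL pinned compound. Grown 24 h at 30 degrees; viability read by BacTiter-Glo luminescence after 5 min.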
Cruzain noTriton: cruzain (T. cruzi) inhibition without detergent. purified cruzain, Z-FR-AMC fluorescence, no detergent. P25779. 200,000 tested, 2.3% active. Potency, µM, for inactives: max response, negative = inhibition, usual class: inhibitors. AID 1476;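 further: plate controls were enzyme without inhibitor for no effect and buffer without enzyme for full effect; nearly all actives have a fitted effect of over 40% in size; top concentration of the series not given in the record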
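Detergent-free condition (0.00005% Triton X-100) in acetate buffer pH 5.5 with DTT. 1.5 nM enzyme and compound were pre-mixed 15 min, then 2 uM Z-FR-AMC substrate added; reaction progress from fluorescence change between first and third reads (60 s).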
MARV entry inh: blocks Marburg virus binding to or entry into cells; Marburg virus pseudotyped entry inhibition, cell reporter; control for the full effect not named in the record; about a third of the inactives were read at about 46 µM; 300,000 tested, 1.8% active; Potency, µM (series often up to 37.8 µM), for inactives: at the top dose activity change, negative = inhibition, usual class: inhibitors; active = well fitted inhibition curve with a large enough effect; inconclusive = small, poorly fitted or top-dose-only effect, or effect the other way; inactive = flat fitted curve, though single readings scatter; tested in HEK293 cells; about a fifth of its hits are not listed in these tables; further: on the % scale 0 is the no-effect control and ±100 the full control effect; luciferase read-out
Numbers without * were called inactive; u = inconclusive; x = no result given; & = joins results of further samples; [ ] = another dose, or the depositor's remark. Unless noted, the call rests on the fitted dose curve; in most records, active means well fitted curve in the direction sought with a large enough effect; inconclusive means small, poorly fitted or top-dose-only effect, or another doubt; inactive means no such curve, though single readings can be large; an effect the other way counts as inactive or inconclusive. Potency means the concentration at half of the fitted maximal effect.

SMILES | Cruzain inh Det | SARS PLP yeast | NS1 inh | 2A StopGo | Lassa entry inh | RE007 growth inh | Cruzain noTriton | MARV entry inh
CCOC(=O)N1CCN(C(=O)C(NS(=O)(=O)c2cccc3nsnc23)c2ccccc2)CC1 (stereo not given) | -1.8% | -8% | -12% | 3% | -10% | -9% | -6% | -3%&-3%
Cc1ccsc1CN(C)C(=O)CCc1nnc(COc2ccccc2)o1 | x | 0% | -7% | 73%[activator] | 28% | 4% | x | -5%[46.1 µM]
Cc1c(C(=O)NCc2cccc(Br)c2)oc2ccc3c(c12)C(=O)CC(C)(C)O3 | -5.5% | x | x | 12% | x | x | -16% | -20%[46.1 µM]
COc1cccc(CNC(=O)c2ccc(CS(=O)Cc3ccc(Cl)cc3)o2)c1 (stereo not given) | -3.9% | x | x | -8% | -21%[46.1 µM] | x | 21% | x
CC(C)c1ccc(NC(=O)c2ccc(NC3=NC4CS(=O)(=O)CC4S3)cc2)cc1 (stereo not given) | x | -7% | -7% | 18% | x | 16% | x | x
CCCn1c(=O)c2ccccc2n2c(SCC(=O)/C(C#N)=C(\C)N)nnc12 | 0.8% | -1% | 11% | x | -10% | 0% | -4% | -1%
CCN(CC)C(=O)CSc1nc(O)cc(=O)n1-c1ccccc1OC | -2.8% | 3% | 8.9µM* | 10% | -16% | 38% | -6% | -5%
COc1ccc(CCNC(=O)c2sc(=S)n(C)c2N)cc1 | -1.0% | -2% | -12% | -14% | -1% | -17% | 0% | -25%[46.1 µM]
CC(C)(C)NC(=O)CN(C(=O)CSc1nnc(COc2ccccc2)o1)c1cccc(F)c1 | -2.9% | 12% | -6% | x | 0% | 6% | u | -14%
Cc1c(C(=O)NCc2ccc3c(c2)OCO3)sc2nc(-c3ccccc3)cn12 | -4.8% | 7% | 8% | 13% | x | -7% | 4% | x
CCOc1ccc(Oc2cc(C)nc(SC)n2)nn1 | 1.0% | -20% | -5% | -1% | -15% | 4% | -16% | -1%
CC(=O)OC(C(=O)NCc1ccco1)c1cccnc1 (stereo not given) | 3.5% | -3% | 1% | -3% | u | 0% | -1% | 5%
COc1ccccc1N1CCN(CCCCCCOc2ccc(F)cc2)CC1 | -0.2% | -1% | -13% | u | u | 2% | 9% | 18µM*
COC(=O)c1ccc(CSc2nnc3sc4ccccc4n23)o1 | 3.2% | -8% | -10% | 1% | 18% | 13% | 6% | 0%
Cc1nc2ccccc2c(=O)n1NC(=O)c1ccc(Cl)cc1 | x | 0% | 1% | -14% | x | 12% | x | x
O=C(CC12CC3CC(CC(C3)C1)C2)NC(=S)Nc1ccc(CN2CCOCC2)cc1 | x | 0% | 4% | 13% | 10%[46.1 µM] | -2% | x | u
COC(=O)c1ccc(NC(=O)Nc2ccccc2F)cc1 | x | -2% | -49% | -1% | u | -27% | x | u
Cc1noc(C)c1COc1ccc(C(=O)Nc2ccccc2)cc1 | x | 1% | x | -8% | 2%[46.1 µM] | -10% | x | u
CCC(=O)N1CCC(C(N)=O)(N2CCCCC2)CC1 | x | -4% | x | -10% | 2% | 2% | x | -2%[46.1 µM]
CC(C)Oc1ccc(CN2CCCC(CO)(Cc3ccc(F)cc3)C2)cc1 (stereo not given) | x | 2% | 4% | -9% | u | -11% | x | u
CCOc1ccc(N(CC(=O)NCc2ccco2)S(=O)(=O)c2ccc(OC)c(OC)c2)cc1 | 11% | -1% | 18% | -13% | -18% | 1% | u | -12%&-12%
O=Cc1c(N2CCCCCC2)nc2ccccn2c1=O | -2.0% | -5% | -1% | 25% | 6% | 7% | -12% | 2%
C/C(=N\OC(=O)c1ccc(Cl)cc1)c1sc(-c2ccccc2)nc1C | -1.7% | -9% | -1% | 33%[activator] | 5% | 12% | -3% | u
C=CCNc1nc(SCC=C)nc2ccsc12 | 0.5% | -30% | -145% | -19% | 11% | -9% | 0% | 0%
COc1ccc(Cl)cc1CSc1n[nH]c(C)n1 | 0.6% | -10% | -62% | 16% | 19% | 14% | -8% | 16%
CC1(C)CC(=O)c2cnc(NC3CC3)nc2C1 | x | 24% | 3% | 2% | 10% | 23% | x | 26%
CN1CCN(C(=O)c2ccccc2NC(=O)c2ccc(C(C)(C)C)cc2)CC1 | x | 0% | 9% | 7% | -9% | 1% | x | 1%
COc1ccc(CNC(=O)c2cc3cc4ccc(C)cc4nc3o2)cc1 | -0.9% | x | x | 19% | x | x | -8% | u
Cc1cc(C)nc(SCC(N)=O)n1 | x | 1% | -4% | -5% | 14% | -4% | x | 7%[46.1 µM]
O=C(CCCOC(=O)c1ccc(O)cc1O)c1ccc(Br)cc1 | x | -2% | x | -20% | 7% | -7% | x | 14%
CCCCOc1ccc(C(=O)NCC(=O)N2CC=C(c3ccccc3)CC2)cc1 | x | 28% | x | -9% | -24% | 5% | x | -21%[46.1 µM]
C/C=C/C=N/NC(=O)CN(c1ccc(Br)cc1)S(=O)(=O)c1ccccc1 | -5.1% | 10% | 11% | 2% | -11% | 6% | -18% | -26%
O=C(CC1CCCCC1)NCc1ccc(Cl)cc1 | x | 2% | 7% | 46%[activator] | u | 25% | x | 6%
Cc1cc(NC(=O)Nc2cc(Cl)sc2Cl)no1 | x | -2% | -4% | 9% | 9% | -3% | x | -11%
CC1(C)CC(=O)N(c2cccc(Cl)c2)C(=O)C1 | x | 1% | 5% | -15% | x | 13% | x | x
NC(=O)C1CCN(CCC(=O)Nc2ccc(Br)cc2)CC1 | -9.7% | 1% | 18% | 6% | 19% | 0%[3.69 µM] | u | -12%&-12%
CS(=O)(=O)c1ccc(NC(=O)CCN2C(=O)C3CCCCC3C2=O)cc1 (stereo not given) | x | -4% | x | -12% | 5% | -2% | x | 6%
Cc1ccc(NC(=S)NC2CC3CCC(C2)N3Cc2ccco2)cc1C (stereo not given) | 3.9% | 3% | -3% | x | u | -14% | -8% | u
CCOc1ccccc1NC(=O)C1CCCN(S(=O)(=O)c2cccc3cccnc23)C1 (stereo not given) | -1.0% | 4% | -36% | -24% | x | -7% | -3% | 0%
COC(=O)CCc1c(C)c(C(=O)c2ccco2)c2ccccn12 | -3.5% | -8% | -5% | -19% | 6% | 1% | -1% | 6%[46.1 µM]
O=C(NCCCN1CCOCC1)c1ccccc1NS(=O)(=O)c1ccc(Br)cc1 | x | -1% | 8% | -3% | -8% | 7% | x | 19%[46.1 µM]
C=CCOC(=O)C1=C(C)NC(C)=C(C(=O)OCC=C)C1c1ccc(C)o1 | x | -6% | 3% | -23% | -11% | 1% | x | u
CC12CC3OC3CC1CCC1C2CCC2(C)C1CCC21OCCO1 (stereo not given) | x | x | x | u | 2% | 38% | x | 8%
O=C(CN1C(=O)c2ccccc2S1(=O)=O)N1CCN(c2cccc(Cl)c2)CC1 | x | x | -52% | -23% | -11% | -3% | x | -5%
CCOc1ccccc1NC(=O)c1c(NC(=O)c2ccncc2)sc2c1CCC(C(C)(C)C)C2 (stereo not given) | -1.7% | x | x | -13% | 0%[46.1 µM] | x | 2% | 13%[46.1 µM]
COC(=O)c1ccc(N2CCOCC2)c(NC(=O)c2ccc3c(c2)OCCO3)c1 | x | 0% | 2% | -18% | -1% | -18% | x | -1%
Cn1c(=O)c(Nc2ccc(O)cc2)c2c3c(cccc31)C(=O)c1ccccc1-2 | -12% | -9% | u | -11% | -4% | -15% | u | -29%
O=C(Nc1ccc(S(=O)(=O)Nc2ccccn2)cc1)c1ccccc1 | x | -1% | 3% | 17% | -4% | 3% | x | 1%
CCCSc1oc(-c2ccco2)nc1S(=O)(=O)c1ccc(C)cc1 | x | -6% | -51% | 4% | -6%[46.1 µM] | -15% | x | u
CCc1nnc(NC(=O)c2cccnc2)s1 | -8.6% | 6% | -3% | 32%[activator] | -1% | -11% | -3% | 0%
COC(CN(C(=O)CCl)C(C(=O)NC1CCCC(C)C1C)c1ccc(C)cc1)OC (stereo not given) | -3.6% | 14% | -7% | u | u | -11% | -7% | u
Cc1ccc(S(=O)(=O)N/N=C/c2ccccc2F)cc1[N+](=O)[O-] | x | 0% | 12% | 46%[activator] | x | 3% | x | x
CC(=O)O[C@]1(C(C)=O)CC[C@H]2[C@@H]3C=C(Cl)C4=CC(=O)CC[C@]4(C)[C@H]3CC[C@@]21C | -4.2%&-2.3% | -37% | -10% | u | -1% | -7%[18.4 µM] | u | -31%
COC(=O)c1c(C)nc(C)c2c(=O)oc3ccccc3c12 | -1.2% | -4% | -10% | 15% | 3% | -9% | 6% | 13%
C/C(=N\NC(=O)c1cc(-c2ccccc2C)nc2ccccc12)c1cccnc1 | x | -3% | 22% | -19% | 7% | 6% | x | 1%
CN(C)c1ccc(C(CNC(=O)c2c(F)cccc2Cl)N2CCOCC2)cc1 (stereo not given) | -4.5% | x | x | -2% | 10%[46.1 µM] | x | 5% | x
CC(NC(=O)CCN1C(=O)c2ccccc2S1(=O)=O)c1ccccc1 (stereo not given) | x | -3% | x | 0% | -2% | -1% | x | 20%[46.1 µM]
CC(C)(C)NC(=O)CSC(=Nc1ccc(F)cc1)NC#N | -5.4% | -1% | -7% | u | -1% | -1% | 3% | -3%
O=C1OCCC1Sc1nnc(-c2cccc(Br)c2)o1 (stereo not given) | -2.6% | -2% | -4% | -4% | 1% | -7% | -3% | -24%
COc1ccc(CCn2c(=N)c(C(=O)NC3CCCC3)cc3c(=O)n4ccccc4nc32)cc1OC | x | 27% | -7% | -25% | x | -2% | x | x
CCCn1nc(CC(=O)OCC)c2ccccc2c1=O | 2.1% | 2% | -29% | -2% | 18% | -13% | -5% | 3%
CC(=O)SC1CC(=O)N(c2ccc(C(C)(C)C)cc2)C1=O (stereo not given) | x | -7% | 6% | 6% | 3% | 0% | x | 6%&6%[46.1 µM]
